# B2AR ag: agonists of human beta-2 adrenergic receptor inducing internalization; Am2.2-beta2AR cells, FAP receptor internalization, flow cytometry; reference of the scale not given here; AID 504454; actives 0.43% (n = 340,000); response, % (no concentration beside the values);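 active = response above a set limit, near 3 SD of response in nonfluorescent compounds, cut at about 42% in these data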;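 also: stock transfer was 100 nL into about 11 µL; a reference agonist was the positive control; negative values mostly stem from fluorescent compounds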
# Target sequence (P07550 whole entry, looked up): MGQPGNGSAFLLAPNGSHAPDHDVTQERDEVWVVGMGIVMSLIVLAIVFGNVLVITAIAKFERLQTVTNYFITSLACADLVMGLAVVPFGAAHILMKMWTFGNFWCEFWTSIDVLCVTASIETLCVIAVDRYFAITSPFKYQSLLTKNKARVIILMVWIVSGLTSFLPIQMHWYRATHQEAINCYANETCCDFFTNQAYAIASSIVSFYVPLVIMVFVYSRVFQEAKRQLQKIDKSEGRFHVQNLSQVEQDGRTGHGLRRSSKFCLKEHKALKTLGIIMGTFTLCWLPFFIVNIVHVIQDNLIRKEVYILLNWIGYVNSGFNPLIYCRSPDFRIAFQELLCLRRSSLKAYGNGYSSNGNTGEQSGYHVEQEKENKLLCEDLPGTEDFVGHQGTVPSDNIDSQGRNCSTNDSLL
# Beta cell apopt: blocks beta cell apoptosis; actives 0.8% (n = 300,000); AID 435005; INS-1E cytokine-induced death, ATP luminescence, 48 h; percent of positive-control rescue, neutral wells zero; protection from apoptosis, % (concentration not given with the values);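 active = all replicates at 75% or more, or half of them and the mean; inconclusive = half reach 75% but not the mean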;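 also: 0% = cytokine-treated negative control wells and 100% = positive control rescue; higher means more ATP so stronger rescue from cytokine killing; wells of about 40 µL received 100 nL stock; the first replicate is given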
# ALR H2O2 inh: human ALR oxidase inhibition via reduced H2O2 | purified ALR, DTT oxidation, H2O2 HRP-luminol luminescence | inhibition, % (concentration not given with the values) | actives 3.8% (n = 290,000);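 active = mean and each replicate at 75% or more; inconclusive = only one of the two met; inactive = neither met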;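 also: stock transfer was 7.5 nL into about 7.5 µL; 0% = neutral wells and 100% = wells with inactivated enzyme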
# Target sequence (P55789 whole entry, looked up): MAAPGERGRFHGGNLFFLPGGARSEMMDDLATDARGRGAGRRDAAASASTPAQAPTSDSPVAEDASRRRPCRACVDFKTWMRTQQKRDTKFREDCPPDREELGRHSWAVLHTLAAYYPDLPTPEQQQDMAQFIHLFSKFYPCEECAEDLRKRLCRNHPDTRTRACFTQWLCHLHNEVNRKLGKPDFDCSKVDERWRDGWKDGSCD
# Calb FLC: C. albicans growth modulation with fluconazole. actives 0.57% (n = 300,000). AID 1979. growth inhibition, % (test concentration not listed). C. albicans CaCi-2 (fluconazole-resistant clinical isolate) + fluconazole, Alamar Blue growth, 48 h;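 active = most replicates above 75%; inconclusive = exactly half above 75%; inactive = most below 75%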;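 also: all wells also contain fluconazole at 8 µg/ml as a sub-toxic cotreatment; 0% = median of DMSO wells and 100% = median of geldanamycin control wells; wells of about 8 µL received 7.5 nL stock; the first replicate is given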
# T cruzi repl: T. cruzi replication inhibition | T. cruzi beta-gal in NIH3T3, luminescence, 90 h | inhibition, % (concentration not given with the values) | actives 1.4% (n = 300,000) | AID 1885;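 active = mean inhibition across valid replicates above about 55%, limit read from the data; inconclusive = mean below that limit but half or more replicates reach it; inactive = mean below it, under half of replicates reach it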;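 also: signal also drops with host cell toxicity which is not excluded here; 0% = plate median of DMSO wells and 100% = zero luminescence signal; higher percent means less beta-gal luminescence so fewer parasites; stock transfer was 50 nL into about 50 µL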
# Bfl-1 A1 inh: inhibitors of the anti-apoptotic protein A1, read as caspase activation. MEF A1-2A-BIM cells, Caspase-Glo 3/7 luminescence, 3 h; percent of clofoctol response, vehicle zero. caspase activation, % (no concentration beside the values). actives 0.066% (n = 330,000);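 active = over half of replicate activation scores above 10%, or exactly half above 10 with the replicate mean above 10; inconclusive = replicate mean below 10 yet half the replicates above 10; inactive = over half of replicates below 10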;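 also: wells of about 30 µL received 50 nL stock; many hits fall short of the cut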
# rRNA inh HTS: inhibitors of bacterial rRNA selective over humanized ribosomes; E. coli WT GFP vs humanized-ribosome RFP mutants, fluorescence, 24 h; active compounds read low; DMSO median 0, no signal -100; GFP signal change (wild-type ribosome), % (concentration not given with the values); actives 1.6% (n = 350,000); AID 720706;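 active = significant combined selectivity score with lowered wild-type GFP, culture density cut under 30%, mutant RFP and density less affected; inactive = any of these conditions unmet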; also: one replicate is shown; some compounds called inactive have numbers as strong as hits
# LANA-H2B inh: blocks KSHV LANA binding to histone H2A/H2B. Q9QR71. cell-free LANA-H2A/H2B peptide, fluorescence polarization. inhibition, % (no concentration beside the values). actives 0.6% (n = 320,000); in the data active = inhibition mostly above about 10%, no sharp cut-off; inactive = mostly below about 6.7%;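 also: stock transfer was 7.5 nL into about 10 µL; 0% = median of vehicle wells and 100% = median of positive control wells; one replicate is shown; the record names a cut of 25% in any replicate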
# rRNA inh HTS OD600: second read-out of rRNA inh HTS, no call of its own (marks repeat the call); OD600 change, %; measured here: OD600 growth;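 optical density of the mix in the first replicate; 0 = DMSO median and -100 = no signal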
# rRNA inh HTS RFP: also measured in rRNA inh HTS; calls as there; RFP signal change, %; measured here: RFP humanized mutant strains;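 first replicate; 0 = DMSO median and -100 = no signal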
# The depositor's hits bear a star; ? = inconclusive; nt = not tested or not shown.
molecule,B2AR ag,Beta cell apopt,ALR H2O2 inh,Calb FLC,T cruzi repl,Bfl-1 A1 inh,rRNA inh HTS,rRNA inh HTS OD600,rRNA inh HTS RFP,LANA-H2B inh
CCCN1CCN(CCCNC(=O)c2cc3c(=O)[nH]c4ccccc4c3s2)CC1,-29,9,-5,7,1,-0.5,-13,-4,-1.4,1.7
OCCC1CN(Cc2cc3c(cc2Cl)OCO3)CCN1Cc1ccccc1 (stereo unspecified),-2,0,8,-68,59*,0.6,-4,-8,4.0,-3.0
N=c1c2c(-c3ccccc3)c(-c3ccccc3)n(Cc3ccccc3)c2ncn1CCO,24,8,-9,97*,57*,-0.3,nt,nt,nt,-0.6
Cc1ccc(C(=O)/C=C/C(=O)O)cc1,5,6,98*,-4,-11,0.2,nt,nt,nt,2.2
Cc1nn(CC(=O)N2CCCC2)c(=O)c2nn(-c3ccccc3)c(C)c12,0,4,nt,3,-9,-3.8,2,5,-2.0,-1.1
CCNc1nc(N2CCCCC2)nc(-n2nnc(C(=O)OCC)c2C)n1,-16,7,5,16,36,-2.2,nt,nt,nt,-2.7
O=C(CNc1ccc2ccccc2c1)N/N=C/c1ccncc1,8,-12,12,8,37,-0.2,-15,-19,-29,4.3
CCOCC(=O)Nc1nc2c(s1)C(=O)CC(C)(C)C2,0,-4,20,1,2,0.3,2,2,4.5,-1.7
CCCC(=O)NC(=S)c1c(C)n(C)n(-c2ccccc2)c1=O,-4,nt,-15,9,-3,0.2,7,1,-0.6,1.8
CC1(C)CC(=O)C(C=NCCN2CCN(C(=S)Nc3cccc(Cl)c3)CC2)=C(O)C1,-10,-2,nt,6,-57,0.1,nt,nt,nt,-5.6
CC(=NCCCn1ccnc1)c1c(C)[nH]n(-c2ccc([N+](=O)[O-])cc2)c1=O,-9,5,-3,3,15,-0.4,20,25,1.1,0.0
CCOP(=O)(OCC)C(NCc1ccccc1)c1ccc(Br)cc1 (stereo unspecified),-3,-10,-16,0,9,-1.1,nt,nt,nt,-1.9
COC(=O)c1cc(OC)c(OC)cc1NC(=O)Nc1ccccc1F,7,-1,5,5,-16,0.1,0,2,0.0,2.8
O=C(CN1C(=O)NC2(CCCC2)C1=O)N1CCc2ccccc2C1,0,3,-4,0,1,-0.1,6,-2,-0.5,-7.6
Cc1nnc(NC(=O)C23CC4CC(CC(C4)C2)C3)s1,0,-4,-16,1,-10,0.2,4,0,-6.3,-1.7
COc1ccc(C)cc1NC(=O)C(C)N1CCOCC1 (stereo unspecified),-9,-2,-14,-3,0,0.8,13,4,1.4,-1.9
Cc1ncc([N+](=O)[O-])n1S(=O)(=O)c1cc(Br)ccc1Br,4,nt,-9,0,0,0.0,5,10,-1.9,-7.7
O=C(NC1CCCC1)C1=COCCO1,9,-1,nt,-1,-14,-0.1,nt,nt,nt,-0.1
COC(=O)C1=C(C)NC2=C(C(=O)CC(C)(C)C2)C1c1ccsc1 (stereo unspecified),-2,-5,-10,-1,0,1.1,nt,nt,nt,-7.4
CCCCCOC(=O)C(C)c1c(C)[nH]c(=S)[nH]c1=O (stereo unspecified),4,-1,14,?,-23,-0.3,nt,nt,nt,-1.6
CCC(=O)c1ccc(OC(=O)/C=C/c2cc(OC)c(OC)c(OC)c2)cc1,-3,nt,14,6,-5,-1.2,nt,nt,nt,-1.8
CCOc1ccc2noc3c2c1C(=O)c1ccccc1-3,-302,11,-18,20,-33,-0.2,nt,nt,nt,44*
O=C(CSCc1ccccc1)N/N=C/c1ccc(OCC(=O)N2CCCCC2)cc1,-3,-7,37,7,-11,-0.3,-21,-15,3.8,-3.3
CCCc1nnc(NS(=O)(=O)c2ccc(OC)cc2)s1,4,nt,72,-8,7,-0.3,10,16,-0.2,15*
O=C(CCC1CCCN(C(=O)Cn2cnnn2)C1)NCc1ccccc1F (stereo unspecified),-4,nt,-3,-15,2,-0.8,0,1,-1.3,-0.3
COC(=O)COc1ccc2c(-c3ccc(OC)cc3)cc(=O)oc2c1,25,2,-10,4,-1,-0.3,nt,nt,nt,-1.2
COc1ccc(C2C(C(=O)O)CCC(=O)N2c2ccc(C)cc2)cc1OC (stereo unspecified),-5,-2,-3,6,2,-0.3,3,-1,-6.3,0.0
O=C(CC1C(=O)NCCN1CC1CCCCC1)NCCCN1CCOCC1 (stereo unspecified),8,0,-1,-4,-3,0.7,9,4,-3.1,3.7
COc1ccc(C(c2nnnn2CS(=O)(=O)c2ccc(C)cc2)N2CCN(Cc3ccccc3)CC2)cc1 (stereo unspecified),7,-3,-9,6,14,-0.6,nt,nt,nt,-1.8
O=[N+]([O-])c1cc2c(cc1/C=N/Nc1nc(Nc3ccccc3)nc(N3CCCCC3)n1)OCO2,4,10,67,-3,41,2.1,nt,nt,nt,-4.2
Cc1cc(S(=O)(=O)N2CCCC2)ccc1OCC(=O)N1CCOCC1,-10,-2,5,-15,4,0.3,nt,nt,nt,2.8
COc1cc(Cl)cc(C(=O)O)c1OCC(=O)O,1,-3,-4,0,-15,0.5,17,25,-0.6,-1.5
CC(C)C(C(=O)NCc1ccco1)N(C(=O)CNS(=O)(=O)c1ccccc1)c1ccccc1 (stereo unspecified),-1,-6,-1,2,1,-0.6,-5,3,-4.8,4.7
CC(C)n1c(SCc2ccc(Cl)cc2)nc2c1c(=O)[nH]c(=O)n2C,-1,-2,-16,4,-5,-0.3,nt,nt,nt,1.6
O=C(O)c1ccoc1CN1CCCCC1,2,-7,-12,-7,-10,-0.4,nt,nt,nt,-0.8
CCOC(=O)/C(C#N)=C1/C=Nc2ccccc2N1,-3,11,54,?,-6,-3.0,nt,nt,nt,-6.5
CCCn1c(SCC(=O)NC2CCCC(C)C2C)n[nH]c1=O (stereo unspecified),0,3,-4,3,-9,-0.2,nt,nt,nt,2.4
COCC(=O)N1CCC(Oc2ccc(C(=O)N3CCCCC3COC)cc2)CC1 (stereo unspecified),-4,-2,-9,9,-1,2.1,18,12,-2.8,-1.0
COCCNC(=O)CSc1nc2sccc2c(=O)n1-c1ccccc1,-3,1,-4,-3,-6,0.7,5,6,0.4,4.2
COc1ccc(-c2sc3ccccc3c2-c2ccc(OCCN3CCOCC3)cc2)cc1,2,1,2,nt,nt,-0.4,28,20,1.9,nt
CC1(C)CC(CC(=O)NNc2nc(-c3ccccc3)cs2)C(=O)O1 (stereo unspecified),0,1,nt,-19,1,0.5,nt,nt,nt,3.0
O=C(NCC(c1ccco1)N1CCN(c2ccc(F)cc2)CC1)c1ccco1 (stereo unspecified),-2,1,55,-10,-10,0.0,-18,-20,-2.7,0.3
COc1ccc(CC(=O)Nc2ccccc2-c2ccccc2)cc1OC,0,5,-2,1,12,-0.6,-2,-16,-5.0,3.1
COc1ccccc1OCC(=O)Nc1ccc(O)cc1C(=O)O,-1,nt,16,2,-6,1.2,nt,nt,nt,1.4
CC(C)NC(=S)N(C)C1(c2ccccc2Cl)CCCCC1=O (stereo unspecified),-2,-2,nt,20,-18,0.9,nt,nt,nt,4.0
CC12CC3(C)CC(C)(C1)CC(C(=O)Nc1nn[nH]n1)(C2)C3,-9,-3,-3,0,-4,1.5,nt,nt,nt,-3.3
CCOc1ccc(/C=N/Nc2cc(N3CCOCC3)nc(C)n2)c(O)c1,8,-3,4,31,-12,?,-3,-2,-1.5,0.8
Cc1ccc(C(=O)OCC(=O)Nc2ccccc2Cl)c(O)c1,-2,-6,-6,3,13,-5.2,3,3,2.7,-1.7
COc1ccccc1C(CNC(=O)c1ccc(C)c(S(=O)(=O)N2CCCCC2)c1)N(C)C (stereo unspecified),10,1,-5,nt,nt,0.1,-4,-2,1.4,-0.2
Cc1nn2c(COc3ccc(NC(=O)c4ccccc4)cc3)nnc2c2ccccc12,-7,11,-15,-28,0,1.0,15,9,-0.8,-4.3
O=[N+]([O-])c1ccc(N2CCN(c3ccc(F)cc3)CC2)cn1,13,11,-4,-5,-11,-0.3,2,-1,-0.7,1.1
CC(=O)N1CCOc2ccc(S(=O)(=O)N(C)c3cccc(C)c3)cc21,-11,-4,-4,-5,8,1.7,-2,-14,-1.3,3.0
Cc1ccc(C)c(N2CCN(C(=O)Cn3c(=O)oc4cc(S(=O)(=O)N5CCCC5)ccc43)CC2)c1,7,8,nt,4,26,0.6,8,9,0.7,-5.7
COc1ccc(C2NC(=O)CCC2[N+](=O)[O-])c(OC)c1 (stereo unspecified),-3,-3,0,9,-13,1.0,21,10,2.8,-2.2
COc1ccccc1NC(=O)COC(=O)c1ccc([N+](=O)[O-])s1,1,3,nt,39,19,1.1,-1,4,0.6,-4.8
CCCNC(=O)C/C(C)=N/NC(=O)C(=O)Nc1ccccn1,-1,-9,22,5,-8,0.3,16,19,-7.1,-0.7

# (more compounds)
molecule,B2AR ag,Beta cell apopt,ALR H2O2 inh,Calb FLC,T cruzi repl,Bfl-1 A1 inh,rRNA inh HTS,rRNA inh HTS OD600,rRNA inh HTS RFP,LANA-H2B inh
COc1ccccc1CNC(=O)C(=O)NCC1OCCN1S(=O)(=O)c1ccccc1 (stereo unspecified),-4,5,-17,-7,4,-0.5,0,-3,1.7,1.9
COc1cc2cc(CCCOC(=O)c3ccc(C(F)(F)F)cc3)oc(=O)c2cc1OC,10,8,2,nt,nt,-0.3,-17,-20,2.9,-5.0
COc1ccc(Cc2noc(CN3CCCN(Cc4ccc(F)cc4)CC3)n2)cc1OC,-2,-2,-3,2,78*,-0.4,1,1,0.9,0.8
COc1cccc(/C=C/C(=O)NNC(=O)c2ccncc2)c1,-4,-1,0,7,-5,-0.1,4,-2,0.0,-0.9
COc1ccc(NC(=O)c2nc[nH]c2C(=O)N(C)Cc2ccccc2)cc1,3,-3,1,-2,-15,0.2,-19*,-3.7*,5.7*,-0.1
Cc1c(O)c(CN2CCCCC2)cc2c3c(c(=O)oc12)CCC3,2,1,47,33,12,0.1,nt,nt,nt,-1.8
COCC(C)NC(=O)c1ccc2c(c1)S(=O)(=O)c1ccccc1C2=O (stereo unspecified),0,-1,6,-7,-7,0.1,-6,-4,2.5,7.2
C#CCOc1ccccc1CNc1ccccc1,-1,0,98*,5,-6,0.5,nt,nt,nt,5.1
CCN(CC(=O)Nc1ccc2c(c1)OCCO2)C(=O)c1ccc(C)c(S(=O)(=O)N2CCOCC2)c1,-3,-2,-1,-7,0,0.5,4,3,-0.3,-4.8
COc1ccc(C2NC(C(=O)O)Cc3c2[nH]c2ccccc32)cc1CN1CCN(c2ccc(F)cc2)CC1 (stereo unspecified),6,1,35,29,23,0.2,-11,-1,16,2.0
N/C(=N\N=C/c1ccc(F)cc1)N/N=C\c1ccc(F)cc1,16,8,nt,-7,15,0.9,-24,-66,2.7,0.7

# Screening data (PubChem BioAssay)

# Only part of the results is shown (hit frequency here may not be typical).
